# PKD1 inh: blocks activity of human protein kinase D1 | AID 797 | inhibition, %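 (about 10 µM by stock and volumes)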 | PKD1 kinase fluorescence polarization assay | 0.056% of 200,000 active;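 active = inhibition of 50% or more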;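 note: controls were vehicle for no effect and a reference inhibitor for full effect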
# GALR2 ag: GALR2 (human) receptor agonism | O43603 | GALR2-expressing cells, agonist activation read-out | activation, %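 (tested at 5 µM)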 | 0.48% of 140,000 active | AID 803;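 active = above mean plus 3 SD of all compounds, about 5% in these data, not always enough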;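 note: 0% = vehicle buffer wells and 100% = reference agonist at full effect; tested in CHO reporter cells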
# Target sequence (O43603 whole entry, looked up): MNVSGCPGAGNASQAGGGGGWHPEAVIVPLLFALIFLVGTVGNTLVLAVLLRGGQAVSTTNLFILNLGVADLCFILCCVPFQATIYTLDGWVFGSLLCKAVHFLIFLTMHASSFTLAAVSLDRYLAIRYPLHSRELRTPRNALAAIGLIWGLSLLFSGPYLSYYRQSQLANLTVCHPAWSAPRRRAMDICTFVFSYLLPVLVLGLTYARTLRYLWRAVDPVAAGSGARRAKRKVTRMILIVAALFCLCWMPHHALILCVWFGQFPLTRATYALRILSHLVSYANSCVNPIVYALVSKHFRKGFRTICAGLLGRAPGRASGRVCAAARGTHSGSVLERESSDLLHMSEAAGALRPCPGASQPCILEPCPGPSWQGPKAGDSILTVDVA
# RGS16-Gao: modulates binding between human RGS16 and Galphao; O15492+P09471; AID 1441; bead-based flow cytometry RGS16-Galphao binding, fluorescence; actives lie on both sides; 0.38% of 220,000 active; binding response (% of control), % at 10 µM;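 active = below 25% or above 175%, edge rows of some plates excepted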;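 note: Galphao activated by GDP with aluminum fluoride before binding; 100% = wells without compound and 0% = beads without RGS; some results beyond the cut were filed as inactive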
# Target sequence (O15492 whole entry, looked up): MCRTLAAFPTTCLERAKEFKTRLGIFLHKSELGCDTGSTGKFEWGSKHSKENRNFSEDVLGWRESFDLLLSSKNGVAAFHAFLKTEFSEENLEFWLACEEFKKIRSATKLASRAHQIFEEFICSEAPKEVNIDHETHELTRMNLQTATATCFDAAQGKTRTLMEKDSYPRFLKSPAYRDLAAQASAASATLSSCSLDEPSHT
# Target sequence (P09471 whole entry, looked up): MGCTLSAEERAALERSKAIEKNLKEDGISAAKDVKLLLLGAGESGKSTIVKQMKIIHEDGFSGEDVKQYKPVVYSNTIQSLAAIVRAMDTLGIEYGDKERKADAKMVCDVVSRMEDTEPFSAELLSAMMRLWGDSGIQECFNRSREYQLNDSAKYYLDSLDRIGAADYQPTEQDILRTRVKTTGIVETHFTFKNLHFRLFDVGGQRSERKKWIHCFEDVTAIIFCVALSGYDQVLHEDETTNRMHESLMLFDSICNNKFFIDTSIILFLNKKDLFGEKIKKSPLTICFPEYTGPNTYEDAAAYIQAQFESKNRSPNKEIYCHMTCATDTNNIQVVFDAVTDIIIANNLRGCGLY
# HSV replic up: increases HSV replication in cells. HSV replication augmentation in cells, fold increase. maximum fold increase. 0.005% of 220,000 active. AID 1956;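 active = peak rise of 1.5-fold or more in the series; tested in PC3 cells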;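 note: first round at 10 µM; read as green reporter fluorescence; hits show the peak of a series up to 25 µM; 1 = signal of infected wells without compound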
# INS promoter inh: TRM-6 insulin promoter activity inhibition; inhibition, % at 2 µM; 0.9% of 130,000 active; AID 1273; TRM-6 cells (human fetal islet line), insulin promoter-eGFP reporter, imaging; reporter expression induced with tamoxifen;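 active = inhibition above the mean plus 3 SD, with well images judged a real hit on visual review, cut at about 60% in these data, passing the limit was not always enough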
# INS promoter inh cell count: recorded beside INS promoter inh, whose call it bears; normalized cell count, %; measured here: cell count, toxicity; reference of the scale not given here;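 cells exposed to compound for 48 h; stained nuclei by imaging scaled within each plate; lower means fewer cells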
# HSV replic up primary fold: also measured in HSV replic up; calls as there; fold increase; compound at 10 µM; measured here: primary screen fold increase 10 uM; tested in PC3 cells;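 GFP signal in the first replicate; 1 = infected wells without compound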
# * marks the source's active call; other numbers are inactive results; i = inactive; / = not tested or not shown.
# Start of the data: the first seven records as a preview:
SMILES,PKD1 inh,GALR2 ag,RGS16-Gao,HSV replic up,HSV replic up primary fold,INS promoter inh,INS promoter inh cell count
CN(C1CCCCC1)S(=O)(=O)Cc1ccccc1,-2,-1.4,101,i,0.8,/,/
Cc1ccccc1NC(=S)NCCC(c1ccccc1)c1ccccc1,-2,-2.0,115,i,0.76,/,/
Cc1ccc(Cn2c(SCC(=O)N/N=C/c3ccc(C)o3)nc3ccccc32)cc1,1,-1.7,114,i,0.97,43,147
COC(=O)Cn1c(=NC(=O)c2ccc(S(=O)(=O)N3CCc4ccccc4C3)cc2)sc2cc(OC)ccc21,-6,-0.5,101,i,0.83,-25,147
CCOC(=O)C1(CCCc2ccccc2)CCN(C(=O)[C@@H]2C[C@@H](C)NC(=S)N2)CC1,2,/,107,i,0.87,/,/
O=C(Cc1cccs1)Nc1cccnc1,-4,-0.8,103,i,0.87,-27,78
COc1ccc(CNC(=O)[C@H](C)NC(=O)C2CCN(S(=O)(=O)c3ccc(C)cc3)CC2)cc1,-17,-4.0,104,i,0.83,40,119

# Main list, from the first entry:
SMILES,PKD1 inh,GALR2 ag,RGS16-Gao,HSV replic up,HSV replic up primary fold,INS promoter inh,INS promoter inh cell count
CN(C1CCCCC1)S(=O)(=O)Cc1ccccc1,-2,-1.4,101,i,0.8,/,/
Cc1ccccc1NC(=S)NCCC(c1ccccc1)c1ccccc1,-2,-2.0,115,i,0.76,/,/
Cc1ccc(Cn2c(SCC(=O)N/N=C/c3ccc(C)o3)nc3ccccc32)cc1,1,-1.7,114,i,0.97,43,147
COC(=O)Cn1c(=NC(=O)c2ccc(S(=O)(=O)N3CCc4ccccc4C3)cc2)sc2cc(OC)ccc21,-6,-0.5,101,i,0.83,-25,147
CCOC(=O)C1(CCCc2ccccc2)CCN(C(=O)[C@@H]2C[C@@H](C)NC(=S)N2)CC1,2,/,107,i,0.87,/,/
O=C(Cc1cccs1)Nc1cccnc1,-4,-0.8,103,i,0.87,-27,78
COc1ccc(CNC(=O)[C@H](C)NC(=O)C2CCN(S(=O)(=O)c3ccc(C)cc3)CC2)cc1,-17,-4.0,104,i,0.83,40,119
Cc1[nH][nH]c(=O)c1C(c1ccc(-c2ccc(Cl)cc2Cl)o1)c1c(C)[nH][nH]c1=O,0,-0.9,93,i,0.94,20,113
COc1cccc(C2/C(=C(/O)c3cnn(-c4ccccc4)c3C)C(=O)C(=O)N2CCN(C)C)c1 (centres undefined),-1,-1.0,181,/,/,37,142
O=c1c2cc(Br)ccc2[nH]c(=S)n1Cc1cccnc1,-2,0.4,91,/,/,-36,47
COC(=O)c1ccccc1NC(=O)CN1CCC(n2nnc3cc(C(F)(F)F)ccc32)CC1,1,-0.2,111,/,/,3,139
O=C(CSc1nnnn1-c1ccc2c(c1)OCCO2)N1CCc2ccccc21,1,0.0,96,i,0.94,43,59
Brc1cnc2nc(SCc3nc4ccccc4[nH]3)[nH]c2c1,/,/,104,i,1.2,/,/
COc1cccc(N2CCN(C(=S)Nc3cccc(C)c3)CC2)c1,12,-1.6,113,i,0.86,-53,124
CC(C)NS(=O)(=O)c1ccc(CCC(=O)N2CCOCC2)cc1,-5,-2.0,105,i,0.82,-192,79
COC(=O)C1C(=O)C2=C(CC1C)NC(=O)CC2c1ccc(O)c(OC)c1 (centres undefined),-8,-2.3,109,i,0.94,-21,110
Cc1cc2nc(SCCN3CCOCC3)[nH]c2cc1C,-19,-1.7,93,i,0.97,-174,48
CN(C)S(=O)(=O)Oc1ccccc1C(=O)Nc1ccccc1Cl,9,/,100,i,0.93,-41,92
CN1CCCC(OC(=O)COc2ccccc2)C1 (centres undefined),-2,0.1,334,i,0.93,-18,121
Cc1ccc(C(=O)NCCNc2nc3cc(C)c(C)cc3cc2C)cc1,7,/,93,i,0.92,0,110
C=CCSc1nnc(NC(=O)Cn2cnc3c2c(=O)n(C)c(=O)n3C)s1,-3,/,99,i,0.77,/,/
O=C(Nc1ccc(Nc2ccccc2)cc1)C1CC1,-4,-2.9,97,i,0.85,/,/
O=C(COC(=O)c1ccc([N+](=O)[O-])s1)NC(c1ccccc1)c1ccccc1,-13,-2.0,105,i,1.1,33,87
O=C1OC(Cc2ccccn2)C(O)=C1C1=NCCCN1 (centres undefined),7,-0.4,83,i,0.92,-24,72
Cc1ccc(S(=O)(=O)Nc2ccc(Cl)cc2C(=O)c2ccccc2)cc1,1,0.3,98,i,1.2,/,/

# Part of the list above, with each value named:
Cc1ccc(C(=O)NCCNc2nc3cc(C)c(C)cc3cc2C)cc1
  PKD1 inh: 7
  GALR2 ag: /
  RGS16-Gao: 93
  HSV replic up: i
  HSV replic up primary fold: 0.92
  INS promoter inh: 0
  INS promoter inh cell count: 110
O=C(Nc1ccc(Nc2ccccc2)cc1)C1CC1
  PKD1 inh: -4
  GALR2 ag: -2.9
  RGS16-Gao: 97
  HSV replic up: i
  HSV replic up primary fold: 0.85
  INS promoter inh: /
  INS promoter inh cell count: /
COc1ccc(CNC(=O)[C@H](C)NC(=O)C2CCN(S(=O)(=O)c3ccc(C)cc3)CC2)cc1
  PKD1 inh: -17
  GALR2 ag: -4.0
  RGS16-Gao: 104
  HSV replic up: i
  HSV replic up primary fold: 0.83
  INS promoter inh: 40
  INS promoter inh cell count: 119
CN(C)S(=O)(=O)Oc1ccccc1C(=O)Nc1ccccc1Cl
  PKD1 inh: 9
  GALR2 ag: /
  RGS16-Gao: 100
  HSV replic up: i
  HSV replic up primary fold: 0.93
  INS promoter inh: -41
  INS promoter inh cell count: 92

# Other results:
SMILES,PKD1 inh,GALR2 ag,RGS16-Gao,HSV replic up,HSV replic up primary fold,INS promoter inh,INS promoter inh cell count
O=C(/C(Cl)=C/Nc1ccc(Br)cn1)C(F)(F)F,-3,/,106,i,0.9,-17,90
O=C(CCN1CCOCC1)NCC1COc2ccccc2O1 (centres undefined),-3,-2.1,108,i,0.91,-24,100
CCOC(=O)CC(=O)CSc1n[nH]c(=O)[nH]c1=O,/,/,105,i,1.3,/,/
Cc1nc(OCc2c(C)noc2C)c2ccccc2n1,0,/,109,i,0.99,-8,95
CN(C)CCNC(=S)NC1CCCCC1,3,/,100,i,1.2,/,/
CCCC(=O)Nc1c(C)nn(C(=O)CCC)c1C,-20,-1.2,99,i,1.1,14,69
CCN(CC)S(=O)(=O)c1cc(C(=O)OCC(=O)c2ccc3c(c2)NC(=O)CO3)ccc1Cl,-13,-0.9,106,i,0.95,6,62
Cn1c(=O)n(CCCOc2ccc(Br)cc2)c2ccccc21,-11,-0.4,108,i,0.92,-14,92
CCOC(=O)CSc1cc(C)nc(NC(C)=O)n1,0,-0.4,80,i,1,/,/
CC(C)CSC1=NSC2=NC(=O)/C(=C\c3coc4ccccc4c3=O)C(=N)N12,-11,/,94,i,1.3,-75,76
CCCCN(CC)S(=O)(=O)c1ccc(C(=O)Nc2nnc(CSC)o2)cc1,-2,0.8,97,i,0.95,18,64
CCOC(=O)c1ccc(NC(=S)NCCCn2ccnc2)cc1,-1,/,112,i,0.96,/,/
O=C(O)c1ccc2c(c1)C(=O)N(c1ccccc1-c1ccccc1)C2=O,-4,/,98,i,1.1,/,/
CC(=O)n1cc([C@H]2C=C(C(=O)O)O[C@@H](OCCCCO)C2)c2ccccc21,-1,/,125,i,1.1,/,/
O=c1[nH][nH]cc1C=Nc1ccc(Cl)cc1Cl,-3,/,106,i,1,/,/
Cc1cc(C)c2c(c1)SC1=NC(c3ccccc3)(C(F)(F)F)NC(=O)N12 (centres undefined),-6,-1.3,100,i,1.1,8,108
Cc1ccc(N2CC(=O)N(NC(=O)Nc3ccc(Cl)c(Cl)c3)CC2=O)cc1,/,/,93,i,1,/,/
O=C(NC(NNc1ccc([N+](=O)[O-])cc1)(C(F)(F)F)C(F)(F)F)c1ccc(F)cc1,0,0.6,96,i,0.99,20,166
CNC(=O)C(=O)Nc1c(O)c2ccccc2[nH]c1=O,/,/,89,i,0.99,/,/
Cc1ccccc1NC(=O)CSCCN1C(=O)c2ccccc2C1=O,0,-0.2,104,i,1.2,-43,93
O=C1C2C3C=CC(C3)C2C(=O)N1c1n[nH]c(CCc2ccccc2)n1 (centres undefined),1,-1.7,106,i,0.84,25,64
CCOC(=O)CSc1ccc2nnc(-c3cccs3)n2n1,4,-1.4,67,i,0.98,/,/
CC1(C)C2CC=C(/C=N/NC(=O)c3ccccc3Br)C1C2 (centres undefined),10,-0.5,99,i,1.1,/,/
Cc1cccc(NC(=O)c2c(O)c3cccc4c3n(c2=O)CC4)c1,-10,-1.4,/,/,/,-8,120
COc1ccc(/C=N\NC(=O)COc2ccccc2)c(C(=O)O)c1OC,2,0.2,106,i,0.97,4,134

# Next part.
SMILES,PKD1 inh,GALR2 ag,RGS16-Gao,HSV replic up,HSV replic up primary fold,INS promoter inh,INS promoter inh cell count
CCn1ncc(Cl)c1C(=O)NC(C)c1ccccc1 (centres undefined),-2,0.3,109,i,0.71,22,137
O=C(/C=C/c1ccc(Cl)cc1)NC(=S)Nc1ccccc1C(=O)O,/,/,101,i,0.93,/,/
COc1ccc2nc(N/C(N)=N/C(=S)Nc3cccc(C)c3)nc(C)c2c1,4,-0.7,/,i,0.74,/,/
Cc1ccc(C(OCC(O)CNC(C)c2ccccc2)c2ccccc2)cc1 (centres undefined),-3,/,102,i,0.67,-53,141
Cc1occc1C(=O)NCc1ccc2c(c1)OCO2,2,0.0,106,i,1,25,131
Cc1ccc(CCNC(=O)C2CCCN(C(=O)c3cc4sccc4n3C)C2)cc1 (centres undefined),-3,-0.3,75,i,1.2,-9,138
CCNC(=O)CC1C(=O)N(c2ccc(C)cc2)C(=O)N1Cc1ccccn1 (centres undefined),-2,-5.1,100,i,1.2,7,119
O=C(NCc1ccccc1Cl)C1CCC(CNc2c(N3CCOCC3)c(=O)c2=O)CC1 (centres undefined),/,/,100,i,0.94,/,/
CCc1c(C)sc(NC(=S)N2CC(C)OC(C)C2)c1C(=O)OC (centres undefined),1,/,86,i,1.1,/,/
CCOc1ccc2cc(C3CC(c4ccco4)=NN3S(C)(=O)=O)c(Cl)nc2c1 (centres undefined),/,/,99,i,0.97,/,/
COc1cc2c(cc1OC)C(c1ccco1)CC(=O)N2 (centres undefined),-11,-0.5,105,i,0.93,/,/
CCOC(=O)N/N=C\C=C\c1ccco1,18,0.1,41,i,1.1,-34,69
COc1ccc(N(Cc2cc(=O)[nH]c3ccccc23)C(=O)c2ccco2)cc1,-9,-1.7,104,i,1.2,33,82
O=C(CSc1cccc[n+]1[O-])Nc1cc([N+](=O)[O-])ccc1Cl,-6,/,104,i,0.93,/,/
Cc1ccc(-c2cnc3c(Cl)c(C)nn3c2)cc1,-1,/,100,i,0.96,-7,110
CCCn1nnc(NC(=O)Cc2ccc(Cl)cc2)n1,4,-2.1,109,i,0.82,39,80
COc1ccccc1/C=C/C=N/NC(=O)c1ccc2nc[nH]c2c1,11,/,83,i,0.97,55,74
COc1cc(/C=N/NC(=O)c2[nH]nc3c2CCc2ccccc2-3)ccc1O,8,2.2,101,i,0.68,42,99
Nn1c(COc2ccccc2)nc2ccccc2c1=O,-14,-1.5,97,i,0.87,55,104
CCN(CC(=O)NCc1ccc(F)cc1)Cc1cc(=O)n2ccsc2n1,-2,/,114,i,0.93,-64,62
